# Compound activity: PubChem, ICCB-Longwood Screening Facility, Harvard Medical School
# MgrA-DNA mod: S. aureus MgrA-DNA binding modulation; fluorescence polarization; inhibition, %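 (about 10 µg/mL by stock and volumes)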; 84,000 tested, 0.13% active;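 active means above 50% in either of two replicates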;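 further: 0% = protein plus DNA without compound and 100% = DNA alone without protein; higher means less MgrA bound to DNA so lower polarization; one replicate is shown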
# S aureus helic: S. aureus DNA helicase inhibition | purified S. aureus helicase, fluorescence unwinding assay; about half of the hits fall short of the stated cut | inhibition, %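 (tested at about 80 µM)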 | 120,000 tested, 0.05% active;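 active means both duplicates at 50% or more, or one of them with a favoured structure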;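 further: 0% = mean of negative control wells and 100% = mean of positive control wells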
# Numbers without * were called inactive; / = no result given. Not all compounds are listed; count on the stated rates, not on these rows.
MgrA-DNA mod	S aureus helic	Compound
/	9	O=C(NCC(c1ccco1)S(=O)(=O)c1ccc(Cl)cc1)c1ccc2c(c1)OCO2 (stereo not drawn)
/	-8	CCOC(=O)CSc1nn(C)c(=S)s1
/	8	COc1cc(OC)cc(C(=O)OC(C)C(=O)Nc2ccc(C(N)=O)cc2)c1 (stereo not drawn)
/	6	O=C(Nc1cnc2ccccc2c1)N1CCOCC1
3.1	10	CC(/C=C1\SC(=S)N(CCC(=O)NC2CCCCC2)C1=O)=C\c1ccccc1
/	12	O=C(c1ccccc1)N1CCN(C(=O)c2cccc(S(=O)(=O)N3CCCC3)c2)CC1
/	-12	CN(C)c1cc(=O)n2c(n1)SCCC2
1.9	1	COc1ccc(C2NC(C(=O)O)Cc3[nH]cnc32)cc1 (stereo not drawn)
1.0	22	N#Cc1c(N)sc2c1-c1ccccc1CC2
-3.8	8	Cc1n[nH]c(C)c1S(=O)(=O)N1CCc2ccccc21
0.7	/	CCSCCOC(=O)C1=C(C)NC2=C(C(=O)CC(c3ccc(OC)cc3)C2)C1c1cccc([N+](=O)[O-])c1 (stereo not drawn)
0.6	0	Cc1ccc(P(C)(=O)c2ccc(C)cc2)cc1
/	29	C1=C(c2ccccc2)CC(c2ccccc2)=C1
/	6	CCc1ccc(Nc2nc(Nc3ccc(OC)c(OC)c3)nc(N3CCOCC3)n2)cc1
-3.5	/	NC(=O)c1ccc(-c2ncc3c(n2)-c2ccsc2SC3)cc1
-0.3	-9	CCOC(=O)Cc1sc(Nc2ccccn2)nc1-c1ccccc1
/	-12	CC(C)(C)n1nc(C2CC2)cc1NC(=O)c1ccccc1
1.1	-2	O=C(C1CC2CCC1C2)N1CCN(c2ccc3c(c2)OCO3)CC1 (stereo not drawn)
/	-3	COc1cccc(COCC(O)CN2CCC(C(N)=O)CC2)c1 (stereo not drawn)
2.1	/	COc1ccc(C2CC(c3c(-c4ccccc4)c4cc(Br)ccc4[nH]c3=O)=NN2C(C)=O)cc1 (stereo not drawn)
/	-4	O=C(O)c1ccc(/C=N/n2cc(-c3ccccc3)[nH]c2=S)cc1
/	-13	CC(C)(C)c1cc(C(C)(C)C)n(-c2ccc(C(=O)O)cc2)n1
/	7	Cn1ccsc1=NC(=O)/C=C/c1ccc(S(=O)(=O)N2CCOCC2)cc1
0.6	/	C#Cc1cccc(NC(=O)c2ccccc2)c1
-0.1	/	O=C(Nc1ccccc1)Nc1cc(C2CC2)nn1-c1ccccc1
-1.2	/	Cc1ccc(SC2=CCS(=O)(=O)C2)cc1
-3.1	/	O=C(O)CCSC1=CCS(=O)(=O)c2ccc(Cl)cc21
2.1	-2	COc1ccc(CNC(=O)C(c2cccs2)N(Cc2cccs2)C(=O)Cc2cccs2)cc1 (stereo not drawn)
1.4	6	CC(C)(N)CN1CCCC1
-1.1	-5	COc1ccc(-n2nc(C(=O)NCC(=O)N3CCCC3)c3ccccc3c2=O)cc1
/	-7	CON(C)S(=O)(=O)c1cccc(C(=O)Oc2ccc(-n3cnnn3)cc2)c1
-1.6	-2	O=c1[nH]c(C2CCCNC2)nc2c1nnn2Cc1ccccc1 (stereo not drawn)
0.2	7	CCCCn1c(-c2ccccc2)n[nH]c1=S
/	-4	CCCSc1nc2ccccc2n1CC(=O)Nc1ccc(C(N)=O)cc1
0.1	8	Brc1ccc(Cn2ccnc2)cc1
-1.6	0	N#Cc1cccc(NC(=O)c2c(Cl)nc3sccn23)c1
0.6	7	O=C(NCCCN1CCN(C2CCCCC2)CC1)C1CCCN(S(=O)(=O)N2CCCCC2)C1 (stereo not drawn)
/	10	COc1ccccc1NC(=O)C(C)NC(C)C (stereo not drawn)
/	-9	CCN(C(=O)COc1ccccc1)c1nnc(-c2ccc(Cl)cc2)s1
/	-3	O=C(NCc1ccccc1F)c1cnc(N2CCCC2)nc1
/	-14	Cc1ccccc1CSCc1nc(N)nc(Nc2ccccc2C)n1
-1.7	/	Fc1ccc(-c2csc(-c3ccc(Cl)cc3)n2)cc1F
/	21	CCOC(=O)c1oc2ccccc2c1CSc1nnnn1-c1ccc(OC)cc1
/	-5	COc1cccc(C(=O)NCCS(=O)(=O)N2CC(C)CC(C)C2)c1 (stereo not drawn)
4.8	/	CCCc1c(NC(=O)Nc2ccc(Cl)cc2Cl)cnn1-c1ccccc1
0.3	/	Cc1cc(C)c(CO)cc1CO
8.8	0	Cc1cc(-c2ccc(/C=C3/C(=O)NC(=O)N(C4CCCCC4)C3=O)o2)ccc1Br
1.8	5	Cc1cccc(N2CCN(C(c3ccccc3F)c3nnnn3C(C)C)CC2)c1C (stereo not drawn)
-2.5	-10	CCCOc1ccc(N)cc1OCCC
-0.8	9	CC1(C)Oc2ccc3ccc(=O)oc3c2-c2cn[nH]c21

# Entries of single compounds, quoted from the list. Order of screens: MgrA-DNA mod, S aureus helic
# Entry for N#Cc1cccc(NC(=O)c2c(Cl)nc3sccn23)c1 : -1.6, 0
# Entry for CCCSc1nc2ccccc2n1CC(=O)Nc1ccc(C(N)=O)cc1 : /, -4
# Entry for COc1cccc(COCC(O)CN2CCC(C(N)=O)CC2)c1 (stereo not drawn) : /, -3
# Entry for O=C(NCCCN1CCN(C2CCCCC2)CC1)C1CCCN(S(=O)(=O)N2CCCCC2)C1 (stereo not drawn) : 0.6, 7
# Entry for NC(=O)c1ccc(-c2ncc3c(n2)-c2ccsc2SC3)cc1 : -3.5, /

# Next section:
MgrA-DNA mod	S aureus helic	Compound
-0.1	18	CC1=C(C(=O)NC2CCCCC2)C2(CCCCC2)OC1=O
-1.3	11	COC(CN(C)S(=O)(=O)c1ccc2c(c1)oc(=O)n2C)OC
/	1	CCCn1c(SCC(=O)NCC23CC4CC(CC(C4)C2)C3)n[nH]c1=O
-0.2	1	CC(=S)Nc1ccc(Nc2ccccc2)cc1
/	0	Cc1ccc(SCC(=O)Nc2nnc(SCc3ccccc3)s2)cc1
2.3	-5	CC(C)C(Nc1ncnc2c1oc1ccccc12)C(=O)O (stereo not drawn)
-1.6	1	COC(=O)c1cccc(NC(=O)COC(=O)c2cc3ccccc3o2)c1
0.2	/	Cn1ncc(NCCc2ccncc2)c(Cl)c1=O
-0.9	/	CC(C)Sc1nc(-c2cccs2)cc(C(F)(F)F)c1C#N
6.3	7	Oc1[nH]c2ccccc2c1C=NCc1ccccc1
-2.5	/	Cc1noc(C)c1-c1nc(-c2ccc(C(F)(F)F)cn2)no1
/	-2	COC(=O)c1ccc(CSc2c(C)[nH]c3ccccc23)o1
/	-15	CCC1CCCCN1C(=O)Cn1c(=O)n(CCC(=O)NCc2ccc3c(c2)OCO3)c(=O)c2ccccc21 (stereo not drawn)
1.2	6	CCN1CCCC1CNC(=O)CCn1c(=O)c2cccn2c2cccnc21 (stereo not drawn)
3.0	-1	CCOC(=O)Cc1nnc2c3nnc(CC(=O)OCC)n3c3nonc3n12
/	-7	O=C(CN1CCN(C(=O)c2ccccc2)CC1)Nc1cccc2nsnc12
/	-7	Clc1ccnnc1N1CCCC2CCCCC21 (stereo not drawn)
3.3	/	N#CCC(=O)N1CCOCC1
/	-35	O=C(OCC(=O)c1cc2ccccc2o1)c1cc(F)cc(F)c1
/	1	COc1ccccc1C1CCN(Cc2cn[nH]c2-c2ccc(F)cc2)CC1
/	-6	CCCN(CC1CC1)C(=O)COc1ncnc2sccc12
-2.0	16	COc1ccc(C(C(=O)NC2CCCCC2)N(Cc2ccc3c(c2)OCO3)C(=O)c2cnccn2)cc1OC (stereo not drawn)
-5.1	2	Cc1cc(N)ccc1-c1ccc(CO)o1
-0.9	/	Cc1cc(N=CNO)c2ccccc2n1
/	5	S=C1CSc2ccccc2N1
0.1	/	COC(=O)C1=Cc2cc(Cl)ccc2OC1
/	-16	Cn1cnnc1SCC(=O)N1CCCC1
-1.2	4	CC(C)CNC(=O)C1CCCN(C(=O)NCc2ccccc2)C1 (stereo not drawn)
/	43	CCN(CC)CCCNc1nc2cc(OC)c(OC)cc2c2nc(-c3cccnc3)nn12
-2.9	/	Cc1cc(OC(=O)c2c(-c3ccccc3)noc2C)c2cc(F)ccc2n1
/	-6	O=C(CSc1c[nH]c2ccccc12)Nc1nccs1
-2.3	/	CC(C)(C)c1ccc(C(=O)CC(N)=O)cc1
/	7	Cc1cc2oc(=O)cc(COC(=O)c3cccc(N(C)C)c3)c2cc1C
0.4	/	Clc1ccccc1CSc1nc2ccccc2[nH]1
-1.6	9	O=C(Nc1ccc(NC(=O)c2ccccc2F)cn1)c1ccco1
-1.4	11	Cn1c(SCc2ccc3c(c2)OCO3)nc2ccccc2c1=O
/	4	NS(=O)(=O)c1ccc(CCNC(=O)CN2CC(=O)Nc3ccccc32)cc1
/	-22	COc1ccc(OC)c(S(=O)(=O)Nc2cc3c(cc2N2CCOCC2)n(C)c(=O)n3C)c1
-1.0	/	COc1ccc(C(=O)COC(=O)c2ccccc2N2C(=O)C3C4C=CC(C4)C3C2=O)cc1 (stereo not drawn)
2.1	13	N#Cc1cn(CC(=O)N2CCc3ccccc32)c2ccccc12
1.0	4	CCc1ccc(CCC(=O)Nc2ccc(S(N)(=O)=O)cc2)o1
/	-7	O=C(c1ccccc1)c1nc2c(ccc3ccccc32)o1
0.1	1	C=CCSc1nnc2c(n1)OC(c1ccc(-c3ccc(F)cc3)o1)N(C(C)=O)c1ccccc1-2 (stereo not drawn)
0.7	-12	CCOC(=O)COc1ccc(Br)cc1C#N
/	-4	CN=C(Nc1ccnn1C(C)C)c1ccccc1
0.1	/	COC(=O)c1sccc1NC(=O)c1ccc(C)cc1
/	-2	CCc1nc2ccc(C(=O)NCCCN3CCCCC3)cc2nc1CC
/	16	Cc1ccc(-c2nn3nnnc3c3ccccc23)cc1C
/	-21	O=C(NCc1ccccc1)c1ccc(S(=O)(=O)N2CCCCC2)cc1
/	19	CCOC(=O)c1ccc(NC(=O)c2ccc(Cl)s2)cc1

# 5 structures out of the list, arranged by number of heavy atoms, smallest number first:
MgrA-DNA mod	S aureus helic	Compound
/	16	Cc1ccc(-c2nn3nnnc3c3ccccc23)cc1C
-1.4	11	Cn1c(SCc2ccc3c(c2)OCO3)nc2ccccc2c1=O
/	-21	O=C(NCc1ccccc1)c1ccc(S(=O)(=O)N2CCCCC2)cc1
/	4	NS(=O)(=O)c1ccc(CCNC(=O)CN2CC(=O)Nc3ccccc32)cc1
0.1	1	C=CCSc1nnc2c(n1)OC(c1ccc(-c3ccc(F)cc3)o1)N(C(C)=O)c1ccccc1-2 (stereo not drawn)

# A portion from the list above:
MgrA-DNA mod	S aureus helic	Compound
/	-21	O=C(NCc1ccccc1)c1ccc(S(=O)(=O)N2CCCCC2)cc1
/	19	CCOC(=O)c1ccc(NC(=O)c2ccc(Cl)s2)cc1

# Remaining list, next part:
MgrA-DNA mod	S aureus helic	Compound
/	0	COc1ccc(-c2noc(N3CCC(C(=O)N4CCN(c5ccccc5)CC4)CC3)n2)cc1
-1.3	7	O=C(Nn1c(=S)[nH]c2ccccc2c1=O)c1ccncc1
/	0	Cc1cc2ccccc2n1-c1ccc(C(=O)N2CCc3ccccc32)s1
/	2	CCC(C)NC(=O)c1n[nH]c(=O)c2ccccc12 (stereo not drawn)
0.4	15	CCN(CC)C(=O)CSc1nsc(SCC(=O)N(CC)CC)c1C#N
1.9	/	O=C1CCc2cc(C3=CSC4=NCCN34)ccc2N1
/	3	CC1CCCCC1NC(=O)COc1ccc(-n2cnnn2)cc1 (stereo not drawn)
-3.3	5	Cc1ccc(S(=O)(=O)n2cccn2)cc1C
/	-1	CC(=O)N(CCC(c1ccccc1)c1ccco1)Cc1ccc(OC(C)C)cc1 (stereo not drawn)
/	9	O=C1Nc2ccc(F)cc2C12OCCO2
-1.2	6	CC(C)(O)C#Cc1ccc(C(=O)N2CCC(C(O)(c3ccccc3)c3ccccc3)CC2)o1
/	-14	CCOC(=O)C1=C(CN2CC=C(c3ccccc3)CC2)NC(=O)NC1c1cccc(OC)c1OC (stereo not drawn)
1.6	/	COc1ccc(Br)cc1/C=N/N=C1/C(=O)Nc2ccccc21
-1.3	1	CN(C)Cc1c(N)cc2ccccc2c1-c1ccccc1
/	-20	CCC(=O)NC(C)c1nc2ccccc2n1C (stereo not drawn)
0.5	11	COc1ccc(CC(=O)Nc2c(-c3ccc(F)cc3)nc3ccccn23)cc1
/	19	Cn1c(=O)c(=O)n(C)c2cc(S(=O)(=O)NCCN3CCCCCC3)ccc21
1.2	3	Cc1nc(Nc2nc3ccccc3o2)ncc1C(=O)Nc1cccc(C(F)(F)F)c1
-0.6	6	Cc1c(C(=O)Nc2ccc(OC(F)F)cc2)oc2ccc(Cl)cc12
0.4	6	CSc1cccc(NS(=O)(=O)c2cccs2)c1
/	-2	O=C(Nc1ccc(-c2nc3ccccc3s2)cc1)C1=COCCO1
-0.5	/	O=C1c2ccccc2CN1C(CO)c1ccccc1 (stereo not drawn)
/	-14	CCC(C)NC(=O)CCN1C(=O)c2ccccc2C1=O (stereo not drawn)
-0.6	/	CCOC(=O)C1=C(C)NC(=O)NC1c1cc(OC)c(OC)c(OC)c1 (stereo not drawn)
-0.9	-4	CCc1ccc(NC(=O)c2cccc3c2C(=O)N(CC)C3)cc1
/	22	CCN(CC)C(=O)Cn1cc(/C=C2\C(=O)NC(=O)N(CC)C2=O)c2ccccc21
/	16	COC(=O)c1ccc(CSc2nnc(C3CC3)n2Cc2ccccc2)o1
-1.0	4	CCOC(=O)C1=C(c2ccccc2)NC(SCC(=O)Nc2ccccc2)=C(C#N)C1c1ccco1 (stereo not drawn)
2.6	-11	OCC#CCSc1nc2ccccc2o1
/	7	CCCn1c2ccccc2c2nc3ccccc3nc21
11	-11	CCSc1nc2ccc(NC(=O)c3ccccc3C(=O)O)cc2s1
/	-1	CNC(=O)c1cc(Cl)ccn1
-0.7	/	NC1=NC(=O)C(CC(=O)Nc2cccc3ccccc23)S1 (stereo not drawn)
-0.5	/	CS(=O)(=O)OCCCCOS(C)(=O)=O
/	8	CN(C)C(=S)c1nc2ccccc2s1
